gsp antagonist: gsp mutant antagonism. gsp-mutant cells, cAMP HTRF, 30 min; control for the full effect not named in the record. Potency, µM (doses to about 76.9 µM), for inactives: at the highest dose activity change, negative = inhibition, hits mostly inhibitors. hit rate 0.4% among 340,000. AID 624288; active = falling curve of any shape with a large fitted effect; inconclusive = falling curve, mostly with a smaller effect; inactive = flat or rising curve; cell line not stated here;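 also: intracellular cAMP measured with PDE inhibitor Ro 20-1724 present during compound exposure; potency is read from the fitted curve at half-maximal effect; % is scaled to controls: 0 for no effect and ±100 for the full control effect; nearly all actives have a fitted effect of over 65% in size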
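G418-selected cells were plated in DMEM/10% FBS for 16-24 h at 37C, then treated with compounds plus the PDE inhibitor […] (300 uM solution added) for 30 min at 37C. Intracellular cAMP was measured by HTRF after 30 min lysis at room temperature.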
D2 agonist: human D2 receptor agonism in beta-arrestin assay | P14416 | AID 624465 | hit rate 0.084% among 360,000 | activation, % (test concentration not listed) | DiscoveRx PathHunter D2 beta-arrestin, luminescence, 90 min; 100% = 57 uM dopamine signal; in the data active = activation above about 40%; inconclusive = about 15% to 40%; inactive = below about 15%; also: compound concentration not given in the record; the text of the record calls up to 30% inactive
Target sequence (P14416 whole entry, looked up): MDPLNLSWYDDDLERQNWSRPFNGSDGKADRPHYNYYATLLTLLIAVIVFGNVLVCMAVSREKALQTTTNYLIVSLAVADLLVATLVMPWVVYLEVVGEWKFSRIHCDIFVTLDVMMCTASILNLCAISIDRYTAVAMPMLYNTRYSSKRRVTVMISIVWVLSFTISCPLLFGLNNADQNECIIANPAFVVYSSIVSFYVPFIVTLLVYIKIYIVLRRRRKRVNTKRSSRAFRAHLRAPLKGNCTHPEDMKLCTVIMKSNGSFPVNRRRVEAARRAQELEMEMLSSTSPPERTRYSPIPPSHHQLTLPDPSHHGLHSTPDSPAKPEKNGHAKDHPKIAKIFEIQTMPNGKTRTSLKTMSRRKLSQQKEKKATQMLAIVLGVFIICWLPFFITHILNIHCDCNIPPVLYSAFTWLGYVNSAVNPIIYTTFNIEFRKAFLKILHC
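Agonist mode: compounds alone added to overnight-plated D2 PathHunter cells for 90 min at 37 C, with 57 uM final dopamine (EC100) defining full response. Beta-arrestin recruitment detected by chemiluminescent reagent, read after 1 h at ambient temperature.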
Six1-Eya2 inh: inhibitors of human Six1/Eya2 interaction. Q15475+O00167. AlphaScreen GST-Six1/His-Eya2 binding, biochemical; hits give low values; control for the full effect not named in the record. activity change, % (concentration not given with the values). hit rate 0.56% among 360,000. AID 651725; in the data active = activity change below about -65%; inconclusive = about -30% to -65%; inactive = above about -30%; also: % is scaled to controls: 0 for no effect and ±100 for the full control effect
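AlphaScreen luminescence read after one hour at 37 °C in darkness. Pin-transferred compounds met GST-Six1 and His-Eya2 protein (5X stock 250 nM/500 nM) plus glutathione donor and Ni-chelate acceptor beads (5X, 50 ug/mL).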
CtBP-E1A blk: inhibitors of CtBP/E1A interaction. AlphaScreen GST-E1A/His-CtBP binding, 1536-well; hits give low values; control for the full effect not named in the record. activity change, % (no concentration beside the values). hit rate 0.49% among 340,000. AID 651724; in the data active means activity change below about -65%; inconclusive means about -30% to -65%; inactive means above about -30%; also: % is scaled to controls: 0 for no effect and ±100 for the full control effect; compound concentration not given in the record
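GST-E1A and His-tagged CtBP (125 nM each as 5X stock) were preincubated with pin-transferred compound for 2 h at 37 °C in the dark, then glutathione donor and nickel acceptor beads were added for 1 h before AlphaScreen reading.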
gsp agonist: gsp mutant agonism | gsp mutant cells, cAMP HTRF, 30 min; control for the full effect not named in the record | Potency, µM (highest dose often 76.9 µM), without a hit: at the top dose activation (cAMP increase), usual class: activators | hit rate 0.13% among 340,000 | AID 624287; active = well fitted activation curve with a large enough effect; inconclusive = small, poorly fitted or top-dose-only effect, or another doubt; inactive = no such curve, though single readings can be large or run the other way; cell line not stated here;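 also: phosphodiesterase inhibitor Ro 20-1724 added with compounds to block cAMP breakdown; potency is read from the fitted curve at half-maximal effect; nearly all actives have a fitted effect of over 60% in size; about a fifth of the inactives were tested at one dose only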
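Cells stably selected in G418 were plated at 2000/well, grown 16-24 hr, then given compounds in DMSO with the PDE inhibitor […] (300 uM solution added) for 30 min at 37C; cAMP was read by HTRF.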
D2 PAM: positive allosteric modulators of human D2 dopamine receptor. P14416. DiscoveRx D2 beta-arrestin cells, luminescence, 90 min; 100% = 57 uM dopamine signal. potentiation, % (concentration not given with the values). hit rate 0.23% among 360,000; active = potentiation of 50% or more; inconclusive = 30% to 50%; inactive = 30% or less;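 also: compound concentration not given in the record; tested on top of an EC20 dose of dopamine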
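D2 cells co-treated with compound plus 50 nM dopamine (EC20) for 90 min at 37 deg C to detect potentiation. Beta-arrestin recruitment was read as enzyme-fragment luminescence after 1 h at ambient temperature. Full response was set by 57 uM dopamine.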
An asterisk follows results filed as active; ? = inconclusive; . = not tested or not shown; & = joins results of further samples; [ ] = remark or other dose.

No.	gsp antagonist	D2 agonist	Six1-Eya2 inh	CtBP-E1A blk	gsp agonist	D2 PAM	compound
1	0%	1.7	-2	2	23%	2	Cc1ccc(NC(=O)c2c(F)cccc2Cl)cc1S(=O)(=O)N1CCOCC1
2	2%	-3.4	-1	0	?	-2&-7	CCN(Cc1nc2cc(OC)c(OC)cc2c(=O)[nH]1)C(=O)c1ccc(S(=O)(=O)N(C)C)cc1
3	6%	-2.3	1	4	2%	-30	S=C(Nc1cc(Cl)cc(Cl)c1)N1CCCC1
4	-10%	-0.6	-5	3	4%[15.4 µM]	1	Cc1cccc(-n2c(SCC(=O)N3CC(=O)Nc4ccccc43)nc3ccccc3c2=O)c1
5	-9%	10	-1	5	11%	-4	Cc1cc(C)cc(N(C(C)C(=O)NCc2ccc3c(c2)OCO3)S(C)(=O)=O)c1 (centres undefined)
6	-17%	-2.7	-21	?	-18%	-9	COc1ccc(/C=C/C(=O)NC(=S)N2CCN(c3ccccn3)CC2)cc1
7	4%	-4.9	5	-28	?	1	CC(=O)NCCc1c[nH]c2ccc(OCC(O)CNC(C)(C)C)cc12 (centres undefined)
8	-11%	2.1	-6	-7	-9%	-17	CCCC(C)NC(=S)NC(=O)c1cc(S(=O)(=O)N2CCOCC2)ccc1C (centres undefined)
9	6%	-18	2	.	-45%[inhibitor]	-6	COc1cccc(CNC(=O)CCNS(=O)(=O)c2ccc3c(c2)oc(=O)n3C)c1
10	11%	-4.8	-1	12	29%	-1	COc1cccc(NC(=O)NCc2ccccc2F)c1

As entered above:
Value of #2 under D2 PAM: -2&-7
Value of #4 under gsp antagonist: -10%
Value of #9 under gsp antagonist: 6%
Value of #1 under CtBP-E1A blk: 2

Continuation:
No.	gsp antagonist	D2 agonist	Six1-Eya2 inh	CtBP-E1A blk	gsp agonist	D2 PAM	compound
11	-21%	-0.4	-5	-3	-13%	-17	O=c1c2c(nc3nc(CCc4ccccc4)[nH]n13)CCC2
12	-17%	-3.3	-27	-19	13%	-3	CCOc1ccccc1N1CCN(c2nc3ccccc3nc2C(C#N)C(=O)OC(C)C)CC1 (centres undefined)
13	-18%	-0.6	0	-1	-44%[inhibitor]	-7	CCOC(=O)[C@H]1[C@H]2COc3ccc(Br)cc3[C@@H]2N2C(=O)CN(Cc3ccccc3)C(=O)[C@@]12C
14	11%	-3.1	-5	0	6%[15.4 µM]	-7	CCN(C(=O)Cc1c(C(=O)O)n(C)c2ccccc12)c1cc(OC)ccc1OC
15	-27%	5.6	-8	1	-19%	7	O=C(O)Cc1sc(N/N=C\c2ccccc2)nc1-c1ccccc1
16	6%	2.8	-4	-4	-45%[inhibitor]	-6	O=c1[nH]c(CN2CCCCC2)nc2c1C1(CCCCC1)Cc1ccccc1-2
17	.	-3.2	20	0	-25%	-18	CCCCCN(C(=O)CCC(=O)OC(C)C(=O)Nc1ccccc1C)c1c(N)n(CCCC)c(=O)[nH]c1=O (centres undefined)
18	6%	-0.8	3	7	-2%	1	CC1(C)CC(=O)C(C=NCCN2CCNCC2)=C(O)C1
19	3%	-2.0	-1	0	-5%	2	CCCOc1ccc(CN(CCO)CCO)cc1C(=O)OC
20	11%	-1.4	-2	-5	-26%	3	COc1cc2c(cc1OC)C(c1ccc(-c3cc(Cl)ccc3Cl)o1)=NCC2

No.	gsp antagonist	D2 agonist	Six1-Eya2 inh	CtBP-E1A blk	gsp agonist	D2 PAM	compound
21	11%	3.0	16	1	4%	-1	CCC/C=N/NC(=O)CNC(=O)c1ccccc1Cl
22	-2%	-4.0	4	.	-2%	13	CC(C)(C)c1ccc(OCc2ccc(C(=O)NN)o2)cc1
23	.	-1.5	-2	8	10%	-1	COc1ccccc1C(=O)NCCC(=O)NCCOc1ccc(C)cc1
24	.	-5.8	7	-16	.	-4	O=C(/C=C/[C@H]1O[C@@H](n2ccc(=O)[nH]c2=O)[C@H](O)[C@@H]1O)NCc1ccccn1
25	-10%	-1.6	5	11	-1%	-4	CC(C)CN(CC(C)C)C(=O)C12CCC(C)(C(=O)O1)C2(C)C (centres undefined)
26	-8%	6.0	-1	2	-18%	15	C=CCNc1nnc(-c2ccncc2)s1
27	.	-2.5	-5	-13	.	-4	CC1(C(=O)Nc2cccc3ncccc23)CCN1C(=O)Cc1ccc(-c2ccccc2)cc1 (centres undefined)
28	5%	-1.7	1	0	8%[15.4 µM]	-9	CC(C)CN(C1CCS(=O)(=O)C1)S(=O)(=O)c1ccc(C(C)C)cc1 (centres undefined)
29	-3%	-1.7	-1	3	12%[15.4 µM]	-5	CC1=C(C(=O)OCC2CCCCC2)C(c2ccccc2F)NC(=O)N1 (centres undefined)
30	14%	-0.9	28	63	-17%	6	CCOc1ccc(-n2c(=O)cc(N3CCN(c4ccc(F)cc4)CC3)[nH]c2=O)cc1

One compound at a time, as listed above.
Listed for COc1cccc(NC(=O)NCc2ccccc2F)c1 : gsp antagonist: 11%; D2 agonist: -4.8; Six1-Eya2 inh: -1; CtBP-E1A blk: 12; gsp agonist: 29%; D2 PAM: -1
Listed for CC(=O)NCCc1c[nH]c2ccc(OCC(O)CNC(C)(C)C)cc12 (centres undefined) : gsp antagonist: 4%; D2 agonist: -4.9; Six1-Eya2 inh: 5; CtBP-E1A blk: -28; gsp agonist: ?; D2 PAM: 1

Two compounds picked at random from the list so far:
No.	gsp antagonist	D2 agonist	Six1-Eya2 inh	CtBP-E1A blk	gsp agonist	D2 PAM	compound
29	-3%	-1.7	-1	3	12%[15.4 µM]	-5	CC1=C(C(=O)OCC2CCCCC2)C(c2ccccc2F)NC(=O)N1 (centres undefined)
23	.	-1.5	-2	8	10%	-1	COc1ccccc1C(=O)NCCC(=O)NCCOc1ccc(C)cc1

(next part)
No.	gsp antagonist	D2 agonist	Six1-Eya2 inh	CtBP-E1A blk	gsp agonist	D2 PAM	compound
31	.	-9.6	-1	-8	?	0	COC(=O)N(C)C[C@@H]1OCc2cnnn2CCCC(=O)N([C@@H](C)CO)C[C@@H]1C
32	.	-3.4	-4	1	.	-7	N#Cc1cccc(NC(=O)c2cc(C3CCCCN3C(=O)c3cccs3)on2)c1 (centres undefined)
33	0%	0.2	-2	0	-13%	-29	CCN(Cc1ccccc1)C(=O)Cn1c(=O)n(CC(=O)NCc2ccco2)c(=O)c2sccc21
34	9%	-1.0	3	11	-2%	14	Cc1cc(C)nc(SCC(=O)Nn2cnnc2)n1
35	18%	-3.9	-11	9	-31%	-23	CCN1C(=O)/C(=C/c2ccc(C)o2)N(C)C1=S
36	17%	-3.5	-10	-7	-15%	-4	COc1ccc(OCC(=O)N2CCN(C(=O)c3ccco3)CC2)cc1
37	-12%	-2.8	0	-2	18%	-25	COc1ccc(Cl)cc1NC(=O)CN1CCC(n2nnc3ccccc32)CC1
38	4%	-3.1	23	29	15%	1	CN(C)C(=O)c1cnc(Sc2ncc(C(F)(F)F)cc2Cl)n1C
39	14%	1.9	4	1	2%	-8	COc1ccc2cc(-c3ccn[nH]3)ccc2c1
40	?	-2.6	-9	-8	13%[15.4 µM]	-7	CC(=O)c1ccc(-c2ccc(C(=O)NCC(c3ccc(F)cc3)N3CCOCC3)o2)cc1 (centres undefined)

No.	gsp antagonist	D2 agonist	Six1-Eya2 inh	CtBP-E1A blk	gsp agonist	D2 PAM	compound
41	-7%	-0.2	3	-1	-35%[inhibitor]	-3	O=C(NN1CCOCC1)c1sc2cccc(F)c2c1Cl
42	5%	-2.0	?	?	?	-27	CCN(CC)c1ccc(/C=N/N2CCN(Cc3ccccc3)CC2)cc1
43	-14%	0.3	-6	-15	2%[15.4 µM]	-7	O=Cc1c(NC2CCCCC2)c2ccccc2[nH]c1=O
44	35µM*	8.3	-28	-22	8%	28	COc1ccc(NC(=O)c2ccc(-c3ccc([N+](=O)[O-])cc3)o2)cc1OC
45	5%	0.6	9	-4	22%	3	Cc1ccc(NC(=O)COC(=O)C2=COCCO2)cc1
46	-1%	0.9	-16	-11	-9%	17	O=C(CN(c1ccccc1)S(=O)(=O)c1ccccc1)Nc1ccccc1C(=O)NCc1ccco1
47	10%	-3.5	2	-2	-33%[inhibitor]	-15	Cc1c(C(N)=O)sc2ncn(CC(=O)OC(C)C)c(=O)c12
48	-5%	2.3	?	-20	2%[15.4 µM]	4	N#Cc1c2nc3ccccc3nc2n2cc(NC(=O)c3ccc(F)cc3)ccc12
49	-7%	0.0	4	-1	3%	-21	Cc1cccc(N(CC(=O)N/N=C/c2cc([N+](=O)[O-])ccc2Cl)S(C)(=O)=O)c1C
50	-2%	2.1	5	.	3%	-9	CCc1ccc(CNC(=O)C2CCN(S(=O)(=O)N3CCC4(CC3)OCCO4)CC2)cc1

No.	gsp antagonist	D2 agonist	Six1-Eya2 inh	CtBP-E1A blk	gsp agonist	D2 PAM	compound
51	9%	0.7	5	7	-2%	-14	COC(=O)CSc1ncnc2c1sc1nc(N3CCOCC3)c3c(c12)CCCC3
52	-7%	4.7	3	9	-27%	0	Nc1cc(C(=O)OCC(=O)N2CCC(Cc3ccccc3)CC2)ccc1Cl
53	?	0.2	5	-10	-22%	-3	O=C(Nc1nc2ccc(F)cc2s1)c1cccc(S(=O)(=O)N2CCc3ccccc32)c1
54	12%	-3.8	-2	1	13%	-25	CCN1CCCC1CNC(=O)c1cc2cc(F)ccc2[nH]1 (centres undefined)
55	-18%	1.6	-16	-16	14%	3	CC1CCCCC1NC(=O)COC(=O)c1ccc2c(c1Cl)C(=O)c1ccccc1C2=O (centres undefined)
56	.	-2.1	-7	-6	-29%	.	O=C(Nc1ccn(CCCNCC(c2ccccc2)c2ccccc2)c(=O)n1)OCc1ccccc1
57	15%	-2.0	-90*	.	1%	11	Cn1nc([N+](=O)[O-])nc1Sc1cccc2cccnc12
58	8%	-2.3	-29	-23	2%	-3	COc1ccc(C2=Nn3c(nnc3-c3ccccc3)SC2)cc1OC
59	.	1.4	11	-6	-80%[inhibitor]	-2	CCCCCCN1C[C@H](n2cc(C3CC3)nn2)[C@@H](O)C[C@@H]1c1ccccc1
60	1%	-4.8	-7	4	2%	-7	COc1ccc(C2C=C(Nc3ccccc3)C(=O)N2c2ccccc2)cc1OC (centres undefined)

No.	gsp antagonist	D2 agonist	Six1-Eya2 inh	CtBP-E1A blk	gsp agonist	D2 PAM	compound
61	0%	-1.5	4	-1	-18%	-2	COc1ccc(CCN2C(=O)CC(NNC(=O)c3cccc(O)c3)C2=O)cc1 (centres undefined)
62	4%	1.8	4	13	24%	18	C=CCn1cc(Cl)c(=O)n(CC=C)c1=O
63	9%	-1.8	7	4	?	-8	Cn1cnnc1SCc1ccccc1
64	8%	-4.5	1	6	-8%	0	CN1CCCN(C(=O)c2cccc3ccccc23)CC1
65	?	1.5	-8	-2	3%	6	Cc1ccc(Cl)cc1N1CCN(C(=O)CSc2nnc3n2C(C)(C)Cc2ccccc2-3)CC1
66	-9%	-0.4	-8	-11	-17%	-10	COc1ccc(OC)c(-c2cc(C3CCN(C(=O)OC(C)(C)C)CC3)[nH]n2)c1
67	-13%	0.8	-25	2	10%	-5	Cc1nn(Cc2ccccc2)c(C)c1C(=O)OCC(=O)c1cc(C)n(C2CC2)c1C
